Rango complex inh = qHTS Assay for Inhibitors of Rango (Ran-regulated importin-beta cargo) - Importin beta complex formation | Potency, µM (doses to about 92.2 µM), for the others: top-dose inhibition of complex formation | Importin subunit beta-1 (Homo sapiens), Q14974 | 340,000 compounds, 0.031% hits | AID 540263, 2011 | Rango CFP/YFP FRET sensor + importin beta, 45 min; active = rising FRET ratio curve, often small or poorly fitted; inconclusive = mostly compound fluorescence or quenching in the first reads; inactive = flat curves in all reads;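 note: potency is the fitted concentration of half-maximal effect; 0% = DMSO wells and 100% = buffer wells lacking importin beta; nearly all actives have a fitted effect of over 15% in size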
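FRET biosensor Rango (snurportin 1 IBB between N-terminal EYFP and C-terminal Cerulean), 50 nM in PBS/1 mM DTT/0.02% Tween-20/0.1% BSA, preincubated 5 min RT with compound; 0.125 microM importin beta added, 45 min RT, CFP/YFP FRET ratio read.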
miR-21 FLuc = qHTS Assay for Modulators of miRNAs and/orActivators of miR-21. Potency, µM (doses to about 38.3 µM), inactives show at the highest dose reporter change, positive = more light. AID 2288, 2010. HeLa miR-21 FLuc reporter, luciferase, 48 h. 340,000 tested, under 10 active; active = well fitted rising curve with a large enough effect; inconclusive = small, poorly fitted or top-dose-only effect; inactive = no such curve, though single readings can be large or run the other way;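 note: % of control where 0% means no effect; miR-21 action dims this reporter so a rising signal means less miR-21 action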
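HeLa cells endogenously expressing miR-21, stably carrying CMV-driven firefly luciferase with a downstream miR-21 binding site, 2000 cells/well. Titrations up to approximately 40 uM, 48 hours; luciferase luminescence read.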
Rango dissoc inh = qHTS Assay for Inhibitors of RanGTP induced Rango (Ran-regulated importin-beta cargo) - Importin beta complex dissociation. Snurportin-1 (Homo sapiens) + GTP-binding nuclear protein Ran (Homo sapiens) + Importin …. Biochemical FRET Rango-importin beta, RanGTP-induced dissociation. Potency, µM (titrated, usually from 46.1 µM), without a hit: top-dose activity change, negative = inhibition. 340,000 compounds, 0.071% hits. AID 540253, 2011; active means falling FRET ratio curve, often poorly fitted, with flat reads before Ran was added; inconclusive means other falling curves, or compound fluorescence or quenching; inactive means flat or rising ratio curve;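 note: potency is the fitted concentration of half-maximal effect; % of control where 0% means no effect; nearly all actives have a fitted effect of over 45% in size; -100% = wells without RanGTP and RCC1; the record marks most hits as doubtful in a second field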
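Rango (0.1 uM)–importin beta (0.25 uM) complex; RanGTP-RCC1 trigger; 45 min RT; CFP/YFP FRET read.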
GLA inh pH 4.5 = qHTS Assay for Inhibitors of Human alpha-Galactosidase at pH 4.5 | Alpha-galactosidase A (Homo sapiens), P06280 | purified enzyme, 4-MU-alpha-Gal fluorescence, pH 4.5 | activity change, negative = inhibition, % at 105 µM | 230,000 tested, under 10 active | AID 1467, 2008; inconclusive = small, poorly fitted or top-dose-only inhibition, or a rising curve; inactive = flat fitted curve, though single readings scatter; no compound was filed as active;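 note: 0% = full activity with enzyme and -100% = basal without enzyme; dose as in the result columns while the protocol names 77 µM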
Target sequence (P06280 whole entry, looked up): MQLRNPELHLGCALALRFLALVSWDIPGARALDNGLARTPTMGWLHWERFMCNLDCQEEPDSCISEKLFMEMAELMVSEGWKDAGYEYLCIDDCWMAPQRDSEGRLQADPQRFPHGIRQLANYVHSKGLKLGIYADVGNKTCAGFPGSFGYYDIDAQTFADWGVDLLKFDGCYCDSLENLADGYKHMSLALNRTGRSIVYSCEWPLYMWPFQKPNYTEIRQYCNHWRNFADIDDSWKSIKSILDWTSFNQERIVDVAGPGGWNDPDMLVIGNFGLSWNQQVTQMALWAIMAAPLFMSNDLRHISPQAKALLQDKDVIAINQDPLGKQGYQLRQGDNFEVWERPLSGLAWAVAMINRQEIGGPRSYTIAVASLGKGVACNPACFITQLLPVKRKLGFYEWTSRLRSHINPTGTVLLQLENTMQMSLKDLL
Active calls of the source: *; u = inconclusive; x = not tested or not shown; [ ] = remark or other dose. Only part of the results is shown. The share of hits here may be higher or lower than overall.

Order of results – Rango complex inh, miR-21 FLuc, Rango dissoc inh, GLA inh pH 4.5
Cc1ccc(OCC(=O)N(Cc2cccs2)C2CCS(=O)(=O)C2)cc1C (stereo not given)
    -0.1%, -3%, 4%, -6
O=C(Nc1ccc(Br)cc1)Nn1cnnc1
    -3.0%, -15%, -4%, x
O=C(NCc1ccccc1)c1ccc2c(=O)n(CCCN3CCCC3=O)c(=S)[nH]c2c1
    -1.7%, 1%, 23%, 19
CC1(c2ccccc2)NC(=O)N(CC(=O)N2CCN(S(=O)(=O)c3c(F)cccc3F)CC2)C1=O (stereo not given)
    2.4%, x, 5%, x
CCCCN(C(=O)Cc1coc2cc(C)c(C)cc12)c1c(N)n(Cc2ccccc2)c(=O)[nH]c1=O
    -0.4%, x, -4%, x
COc1ccc(-c2cc3nc(C)c(CCC(=O)NCc4ccco4)c(C)n3n2)c(OC)c1
    2.7%, -12%, -1%, -7
CC(C)Cn1nc(C(=O)Nc2nnc(C3CC3)s2)c2ccccc2c1=O
    0.5%, x, 13%, x
O=C(Nc1ncc(Cc2cccc([N+](=O)[O-])c2)s1)c1ccco1
    -1.2%, -18%, 39%, -5
Cc1ccnc(NS(=O)(=O)c2cc(C(F)(F)F)ccc2Cl)c1
    x, 2%, x, 0
Cc1cc(C)c(NC(=O)COc2ccc(-n3cnnn3)cc2)c(C)c1
    -2.5%, -7%, -1%, x
CCn1c(/C=C/N(C)c2ccccc2)[n+](CC)c2ccc(Cl)cc21
    2.5%, u, 11%, -22
O=C1CSC(c2ccccn2)N1c1ccccc1F (stereo not given)
    -2.9%, 0%, -3%, 8[21.1 µM]
Cc1csc(=O)n1CC(=O)OCC(=O)NC(C)c1ccc(F)cc1 (stereo not given)
    -0.6%, x, -3%, x
CCN1C(=O)CSC1=Nc1ccccc1Cl
    -4.1%, -3%, -2%, x
Cc1c(Cl)cccc1NC(=O)CCC(=O)c1cccs1
    -0.3%, -9%, 0%, x
N#Cc1c(NC(=S)NC(=O)c2ccccc2)sc2c1CCC2
    5.0%, -44%, -21%, -5
O=C(COc1ccc2c3c(c(=O)oc2c1)CCC3)N1CCN(c2ccc(F)cc2)CC1
    -1.4%, 4%, 19%, x
COC(=O)c1[nH]c2ccccc2c1NC(=O)c1c(F)cccc1F
    -0.1%, 0%, -8%, 15
COC(=O)c1cc(Br)c(=O)n(CC(C)C)c1
    -1.6%, 1%, 6%, 9
Cc1cccc(NC(=O)c2ccc(Cl)c(S(=O)(=O)N3CCCCC3)c2)n1
    -2.6%, x, 5%, x
O=C(COC(=O)/C=C/c1ccccc1)NC1CCCCCC1
    3.9%, x, 0%, x
CCn1cc(C(=O)NCCCN2CCN(C)CC2)c(=O)c2cc(S(=O)(=O)N3CCc4ccccc4C3)ccc21
    4.9%, 6%, 28%, 1
C/C(=N\NC(N)=S)C12CC3CC(CC(C3)C1)C2
    -0.9%, 29%, -9%, 8
COc1ccc(OC)c(S(=O)(=O)Nc2cnc3ccccc3c2)c1
    1.0%, -5%, 1%, -2
O=c1[nH]c(N2CCN(c3ccccc3)CC2)nc2c1CCC2
    3.5%, 0%, -22%, 3
COc1ccc2cc(C(=O)N3CCN(Cc4ccc5c(c4)OCO5)CC3)[nH]c2c1
    -2.6%, 6%, -1%, x
CCC(C)(C)n1nnnc1C(c1ccccc1OC)N1CCSCC1 (stereo not given)
    -0.1%, -3%, 3%, -2
CC1CCN(C(=O)COC(=O)CCC(=O)c2ccc(F)cc2)CC1
    -2.3%, x, 16%, x
Cc1cc(C)cc(N(CCC#N)C(=O)COC(=O)c2ccc(OCc3c(C)noc3C)cc2)c1
    -3.4%, x, -2%, x
COC(=O)c1ccc(NC(=O)CCN2C(=O)CSC2=O)cc1
    1.9%, 4%, 8%, 3

Reformatted with bars between the fields: part of the list above
mol | Rango complex inh | miR-21 FLuc | Rango dissoc inh | GLA inh pH 4.5
O=C(COC(=O)/C=C/c1ccccc1)NC1CCCCCC1 | 3.9% | x | 0% | x
CCn1cc(C(=O)NCCCN2CCN(C)CC2)c(=O)c2cc(S(=O)(=O)N3CCc4ccccc4C3)ccc21 | 4.9% | 6% | 28% | 1

(next part)
Order of results – Rango complex inh, miR-21 FLuc, Rango dissoc inh, GLA inh pH 4.5
NC(=O)CCN1CCN(S(=O)(=O)/C=C/c2ccccc2)CC1
    2.6%, -2%, 9%, x
COCCNC(=S)N/N=C(\C)CCc1ccc2c(c1)OCO2
    0.6%, 2%, 10%, 1
COCCNC(=O)C(c1ccc(C)o1)N(Cc1ccco1)C(=O)c1snc(C(N)=O)c1N (stereo not given)
    3.3%, 2%, 5%, -7
CC[C@@]1(C(=O)OC)N[C@H](CN(C)C(C)=O)[C@@H]2C(=O)N(C)C(=O)[C@@H]21
    0.7%, x, 0%, x
CCCNS(=O)(=O)c1ccc(OCC(=O)NCC2CCCO2)cc1 (stereo not given)
    -3.5%, 0%, 12%, x
Cc1noc(C)c1COC(=O)COc1ccc(-c2ccccc2)cc1
    -0.6%, -6%, 1%, 0
CCOC(=O)C1CCN(C(=O)C2CCN(c3ncnc4c3nc3n4CCCCC3)CC2)CC1
    -0.9%, 4%, -14%, x
CC(c1ccccc1F)n1cc(C(=O)NCCCn2ccnc2)nn1 (stereo not given)
    -6.1%, 1%, 3%, 3
Cc1ccc(S(=O)(=O)c2cc3c(=O)n4cccc(C)c4nc3n(Cc3ccco3)c2=N)cc1C
    x, -9%, x, 11
COc1ccc(NS(=O)(=O)c2ccc(OCC(=O)N3CCCC3)cc2)cc1
    0.8%, 4%, 2%, 9
Cc1ccccc1NC1C=CS(=O)(=O)C1 (stereo not given)
    -2.1%, 6%, -11%, 7
COc1ccc(OC)c(/C=C/C(=O)Nc2cccc(S(=O)(=O)N3CCCC3)c2)c1
    u, -13%, -8%, 10
CC(NC(=O)NCc1cccnc1)(C(F)(F)F)C(F)(F)F
    -2.2%, -7%, -8%, 0
OCC1(Cc2cccc(Cl)c2)CCCN(Cc2cn[nH]c2C2CCCCC2)C1 (stereo not given)
    1.5%, 7%, -9%, 6
CC(=O)NC12CC3CC(C1)CC(C(=O)N1CCN(S(=O)(=O)c4cccc(C(F)(F)F)c4)CC1)(C3)C2
    -3.3%, x, 8%, x
Fc1ccc(-c2nnc3ccccn23)cc1
    -1.1%, 2%, -4%, 3
N/C(=N/S(=O)(=O)c1ccccc1)c1cccc([N+](=O)[O-])c1
    -2.9%, 6%, -12%, 4
CSc1nnc(Cn2c(=O)sc3ccccc32)n1C
    5.3%, -9%, 0%, 6
O=C(CN1C(=O)c2ccccc2C1=O)NCC1COc2ccccc2O1 (stereo not given)
    2.3%, -7%, -7%, 1
CCOC(=O)Cc1csc(NS(=O)(=O)c2ccc3ccccc3c2)n1
    -0.3%, -11%, -10%, -5
CC(C)Cn1nnc2c(=O)oc3ccccc3c21
    -2.3%, 0%, 5%, -2
Cc1ccc(S(=O)(=O)N2CCC(C(=O)N[C@H](C(=O)NCc3ccco3)C(C)C)CC2)cc1
    -0.5%, 1%, 0%, 5
CCNc1nc(N)c(C(=O)C23CC4CC(CC(C4)C2)C3)s1
    -3.5%, -12%, -3%, 2
CCn1nnnc1SCC(=O)c1cc(Cl)ccc1OC
    -0.9%, -11%, 23%, -3
CCc1cc(=O)oc2cc(OCC(=O)NCCCN3CCCC3=O)c(Cl)cc12
    -2.0%, -1%, 8%, x
COc1ccccc1NC(=O)CSc1nc2c(oc3ccccc32)c(=O)n1C
    -0.8%, 1%, 17%, x
Cc1ccc2c3c(c(SCC(=O)Nc4nonc4C)nc2c1)CCCC3
    -7.2%, -1%, -20%, 4
COc1cccc(/C=N/NC(=O)CNC(=O)c2ccncc2)c1O
    1.0%, 21%, 38%, x
Cc1ccc(NC(=O)CNC(c2ccccc2)c2ccccc2)c(F)c1
    -1.1%, -3%, -9%, -12
COc1ccc(-c2nn(-c3ccccc3)cc2C(=O)Nc2cccc(S(=O)(=O)NC3=NCCC3)c2)cc1
    1.5%, x, -10%, x
O=C(Cc1cccs1)Nc1nc2c(ccc3ccccc32)s1
    -0.8%, -9%, -7%, -19
CCOc1ccc(C(=O)N(c2ccccn2)C2CCCCC2)cc1
    -0.3%, 1%, -1%, 3
CN(C)C1(CNC(=O)C2CCN(S(=O)(=O)c3ccccc3C(F)(F)F)CC2)CCCCC1
    0.9%, -5%, 0%, x
COc1ccccc1OCCC(=O)NNC(=O)c1ccccc1F
    3.6%, x, -6%, x
CCc1cc2ccc(OC)cc2nc1SCC(=O)Nc1cc(C)on1
    1.0%, 3%, -5%, 5
COc1ccc(CN(C2CC2)S(=O)(=O)c2ccccc2Br)cc1
    6.6%, x, 3%, x
CCCC(=O)N1CC(=O)Nc2ccc(C)cc2C1c1ccccc1 (stereo not given)
    -0.9%, -7%, 15%, x
Cc1ccc(S(=O)(=O)Nc2cccc3c2O[C@H](CN(C)Cc2ccccc2)[C@@H](C)CN([C@H](C)CO)C3=O)cc1
    -0.8%, x, 0%, x
Cc1nc(NC(=O)C(C)Oc2cccc(Cl)c2)sc1C(=O)N(C)C (stereo not given)
    10%, -35%, 1%, 4
O=C(CCNC(=O)c1ccco1)Nc1ccccc1
    0.0%, -5%, 9%, x
C=CCNC1=C(Cl)C(=O)N(Cc2ccccc2)C1=O
    u, 1%, u, x
O=C(O)c1cc(S(=O)(=O)N2CCN(c3ccccn3)CC2)ccc1Cl
    1.6%, 0%, -2%, -4
CC(C)(C)C(=O)/C=c1\[nH]c(=O)/c(=C\c2ccc(C#N)cc2)s1
    u, -17%, u, -3
Cc1noc(-c2ccccc2)c1NC(=O)Nc1ccc(Cl)cc1
    2.5%, 14%, -7%, -6
CN1CCN(c2ccc(NC(=O)COc3cccc4ccccc34)cc2)CC1
    4.6%, -8%, -4%, x
Cc1ccc2c(Cl)cc(Cl)c(OCC(=O)N3CCCC3)c2n1
    u, -32%, -9%, -10
S=c1[nH]nc(C2CCCCC2)n1/N=C/c1ccco1
    2.5%, -3%, 26%, -7
O=C(CCn1cnc2ccccc21)N/N=C/C=C/c1ccccc1
    -2.0%, -6%, 2%, 3
COC(=O)c1ccc(NC(=O)Cn2nnc3ccccc32)cc1
    2.8%, -44%, 41%, 1
Oc1ccc(N=Nc2ccccc2)o1
    0.2%, 28%, 1%, x

The list continues.
Order of results – Rango complex inh, miR-21 FLuc, Rango dissoc inh, GLA inh pH 4.5
O=C(NNCc1ccccc1)c1ccccc1
    -0.4%, x, -8%, x
CCN(CC(=O)Nc1ccc(OC)cc1)C(=O)Cc1ccc(OC)c(S(=O)(=O)N2CCOCC2)c1
    3.2%, x, 0%, x
NS(=O)(=O)c1ccc(NC(=O)c2cc(-c3cc(Cl)ccc3O)n[nH]2)cc1
    -4.4%, 0%, 16%, x
CCN(C(=O)COc1ccc(C)cc1OC)c1cccc2ccccc12
    -3.7%, x, 8%, x
COc1ccc(C(=O)NCC(c2ccco2)N2CCc3ccccc32)cc1OC (stereo not given)
    0.4%, x, -1%, x
CN(C(=O)COC(=O)c1ccc2c(c1)OCCO2)C1CCCCC1
    0.0%, x, 17%, x
COCCn1c(C)cc2c(c1=O)C(c1ccccc1F)C(C#N)=C(N)O2 (stereo not given)
    u, -2%, u, 2
CC(=O)Nc1cccc(OCC(O)Cn2c(C)nc3ccccc32)c1 (stereo not given)
    3.8%, 0%, 7%, -8
COc1ccc(Cl)cc1C(=O)NNC(=O)c1cccs1
    -3.7%, x, -13%, x
CC(C)CN1C(=O)C(=Nc2cccnc2)c2ccccc21
    0.3%, 19%, -4%, -1
Cc1cc(C(=O)Nc2ccc(Cl)c(S(=O)(=O)N3CCOCC3)c2)c2ccccc2n1
    5.5%, x, -6%, x
CCOCCn1c(=NC(=O)CSCC(=O)N2CCOCC2)sc2cc(OC)ccc21
    -9.0%, 1%, 0%, x
CC1CC(NC(=O)N(C)C)N(C)C(=O)N1 (stereo not given)
    0.9%, 1%, 1%, 3
CC1CN(c2sc(S(C)(=O)=O)nc2S(=O)(=O)c2ccc(Cl)cc2)CC(C)O1 (stereo not given)
    1.9%, 3%, -8%, x

Source: PubChem
